Cruzain inh Det: qHTS Assay for Promiscuous and Specific Inhibitors of Cruzain (with detergent); Cruzipain (Trypanosoma cruzi), P25779; purified cruzain, Z-FR-AMC fluorescence, 0.01% Triton; Potency, µM, for inactives: max response, negative = inhibition, most hits filed as inhibitors; 200,000 compounds, 0.43% hits; active = well fitted curve in the direction sought with a large enough effect; inconclusive = small, poorly fitted or top-dose-only effect, or another doubt; inactive = no such curve, though single readings can be large; an effect the other way counts as inactive or inconclusive;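 note: plate controls were neutral wells for no effect and buffer without enzyme for full effect; nearly all actives have a fitted effect of over 40% in size; top concentration of the series not given in the record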
Target sequence (P25779 123-467 limits assumed): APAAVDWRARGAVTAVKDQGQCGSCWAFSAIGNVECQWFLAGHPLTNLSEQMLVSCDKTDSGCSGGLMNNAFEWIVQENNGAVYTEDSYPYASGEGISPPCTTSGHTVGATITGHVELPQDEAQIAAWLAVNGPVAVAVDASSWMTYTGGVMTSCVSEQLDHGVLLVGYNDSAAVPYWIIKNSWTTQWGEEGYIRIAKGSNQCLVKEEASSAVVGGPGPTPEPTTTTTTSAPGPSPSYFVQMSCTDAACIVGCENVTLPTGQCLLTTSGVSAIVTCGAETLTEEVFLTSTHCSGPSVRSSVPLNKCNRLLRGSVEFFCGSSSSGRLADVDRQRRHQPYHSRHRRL
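Purified cruzain (1.5 nM final) was preincubated with compounds for 15 min at room temperature in 100 mM sodium acetate pH 5.5, 5 mM DTT, 0.01% Triton X-100. Reaction started with 2 uM Z-FR-AMC; AMC fluorescence change over 60 s gave activity.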
Lassa entry inh: qHTS for Inhibitors of binding or entry into cells for Lassa Virus; Lassa virus pseudotype entry inhibition, cell reporter; control for the full effect not named in the record; Potency, µM (doses to about 37.9 µM), for the others: at the top dose activity change, negative = inhibition, actives largely listed as inhibitors; 300,000 compounds, 1.2% hits; AID 540256, 2011; active means well fitted inhibition curve with a large enough effect; inconclusive means small, poorly fitted or top-dose-only effect, or effect the other way; inactive means flat fitted curve, though single readings scatter; tested in HEK293 cells; note: % is set by controls: 0 for no effect and ±100 for the full control effect; nearly all actives have a fitted effect of over 50% in size; luciferase read-out
SARS PLP yeast: qHTS of Yeast-based Assay for SARS-CoV PLP; Potency, µM (doses to about 32.9 µM), without a hit: at the highest dose activity, positive = growth rescue; 330,000 compounds, 0.19% hits; S. cerevisiae expressing SARS-CoV PLpro, growth rescue; control for the full effect not named in the record; note: 0% is about no effect; nearly all actives have a fitted effect of over 55% in size; growth read by luminescence after 48 h
Cruzain inh noDet: qHTS Assay for Promiscuous and Specific Inhibitors of Cruzain (without detergent); Cruzipain (Trypanosoma cruzi), P25779; purified cruzain, Z-FR-AMC fluorescence, no detergent; Potency, µM, without a hit: max response, negative = inhibition, most hits filed as inhibitors; 200,000 compounds, 2.3% hits; active = well fitted curve in the direction sought with a large enough effect; inconclusive = small, poorly fitted or top-dose-only effect, or another doubt; inactive = no such curve, though single readings can be large; an effect the other way counts as inactive or inconclusive;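 note: plate controls were enzyme without inhibitor for no effect and buffer without enzyme for full effect; nearly all actives have a fitted effect of over 40% in size; top concentration of the series not given in the record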
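Purified cruzain at 1.5 nM, pre-incubated 15 min with compound at room temperature in 100 mM sodium acetate pH 5.5, 5 mM DTT, 0.00005% Triton X-100. Reaction started with 2 uM Z-FR-AMC; AMC fluorescence increase over 60 s gives rate.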
NS1 function inh: qHTS Assay for Inhibitors of Influenza NS1 Protein Function. S. cerevisiae slowed by influenza A NS1, growth recovery by OD600. Potency, µM (highest dose often 46.1 µM), for the others: at the top dose activity, positive = more growth. 270,000 compounds, 0.4% hits; note: actives are rising curves; nearly all actives have a fitted effect of over 50% in size
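Recovery from NS1-induced slow growth read by OD600 in budding yeast switched to galactose assay medium (pH 6.0, -URA) at 1:100 dilution. Compound 23 nl per well; the matching strain lacking NS1 serves as control.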
MARV entry inh: qHTS for inhibitors of binding or entry into cells for Marburg Virus; Marburg virus pseudotyped entry inhibition, cell reporter; control for the full effect not named in the record; about a third of the inactives were read at about 46 µM; Potency, µM (titrated, usually from 37.8 µM), inactives show top-dose activity change, negative = inhibition, most hits filed as inhibitors; 300,000 compounds, 1.8% hits; AID 540276, 2011; active = well fitted inhibition curve with a large enough effect; inconclusive = small, poorly fitted or top-dose-only effect, or effect the other way; inactive = flat fitted curve, though single readings scatter; tested in HEK293 cells; about a fifth of its hits are not listed in these tables; note: % is set by controls: 0 for no effect and ±100 for the full control effect; luciferase read-out
2A StopGo: High Throughput Screening for Foot and Mouth Disease Virus Antivirals; human cells with a luciferase reporter of 2A StopGo recoding; control for the full effect not named in the record; Potency, µM (top dose mostly 57.9 µM), inactives show at the top dose signal change, negative = less light; 410,000 compounds, 1.2% hits; active = well fitted falling curve with a large enough effect; inconclusive = small, poorly fitted or top-dose-only effect; inactive = no such curve, though single readings can be large or run the other way; tested in HEK293T cells; note: % is set by controls: 0 for no effect and ±100 for the full control effect; nearly all actives have a fitted effect of over 45% in size; luciferase light after 4 h
RE007 growth inh: qHTS Assay for Inhibitors of the HIV-1 protein Vpr; S. pombe RE007 Vpr strain, BacTiter-Glo ATP luminescence, 24 h; control for the full effect not named in the record; Potency, µM (top dose mostly 92.2 µM), without a hit: at the top dose activity change, negative = less growth; 360,000 compounds, 0.21% hits; active = well fitted falling curve with a large enough effect; inconclusive = small, poorly fitted or top-dose-only effect; inactive = no such curve, though single readings can be large or run the other way;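 note: % is set by controls: 0 for no effect and ±100 for the full control effect; nearly all actives have a fitted effect of over 50% in size; the assay follows cell death caused by Vpr and the record does not say whether a fall means rescue or toxicity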
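Fission yeast strain RE007, carrying one chromosomally integrated HIV-1 vpr copy, was seeded at OD 0.01 in PMG+AL medium with 23 nL pinned compound. After 24 h at 30 °C and 99% humidity, viability was read by BacTiter-Glo luminescence.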
Active calls of the source: *; ? = inconclusive; · = no result given; & = joins results of further samples; [ ] = remark or other dose. Unless noted, calls come from the whole dose curve; as a rule, active means well fitted rising curve with a large enough effect; inconclusive means small, poorly fitted or top-dose-only effect; inactive means no such curve, though single readings can be large or run the other way. Potency is the fitted concentration of half-maximal effect.

SMILES	Cruzain inh Det	Lassa entry inh	SARS PLP yeast	Cruzain inh noDet	NS1 function inh	MARV entry inh	2A StopGo	RE007 growth inh
O=c1[nH]nc(-c2ccc(F)cc2)cc1Cc1ccccn1	·	·	-3%	·	0%	·	-23%	4%
Cc1ccc(SCC(=O)N2CCOCC2)cc1	0.0%	33%	17%	?	3%	?	36%[activator]	-2%
O=c1c(N2CCN(c3ccccc3)CC2)csc2ccc(Cl)cc12	-8.5%	-11%[46.1 µM]	·	-16%	·	·	18%	·
CC1=C(C(=O)Nc2cccc(C(F)(F)F)c2)C(c2ccccc2)n2ncnc2N1 (configuration not stated)	-5.2%	4%[46.1 µM]	·	2%	·	·	-12%	·
CC(C)CN1CC(C)C(=O)N(c2ccccc2)C1=O (configuration not stated)	·	10%	·	·	·	1%	-10%	-13%
Nc1nc(N2CCCCC2)nc2ccccc12	1.3%	-10%	6%	-11%	0%	25%	8%	20%
CCC(CC)C(=O)Nc1nnc(SCC(=O)NC2CCCCC2)s1	·	?	2%	·	?	10%[46.1 µM]	-14%	-4%
Cc1cc(NC(=O)CSc2nncc(=O)n2N)no1	·	-18%[46.1 µM]	1%	·	·	?	-9%	4%
C/C(CC(=O)NC(C)C)=N\NC(=O)COc1cc(C)c(Br)cc1Br	-7.9%	?	-15%	?	6%	4%	?	-16%
CC(C)(C)c1ccc(C(=O)O[C@H]2[C@H](Cc3ccccc3)NS(=O)(=O)[C@H]3C[C@@H]4C=C[C@]23O4)cc1	·	·	6%	·	·	-2%	-15%	2%
CN(c1ccccc1)S(=O)(=O)c1cccc(C(=O)NNC(=O)c2ccccc2)c1	·	-10%	1%	·	·	?	?	8%
CC(=O)c1ccc(NC(=S)Nc2ccc3[nH]c(=O)[nH]c3c2)cc1	·	7%	2%	·	0%	17%	0%	3%
CN(Cc1ccccc1)C(=O)c1nc2ccccn2c1CN1CCC(N2CCOCC2)CC1	·	·	-2%	·	-1%	·	-14%	-7%
Cc1ccc(C)c(C(=O)COC(=O)c2cccc(N3C(=O)c4c(C)nc5ccccc5c4C3=O)c2)c1	-0.5%	?	-3%	?	0%	?	6%	-4%
Cc1ccc(-c2nc(CS(=O)(=O)CC(=O)NCCN3CCCC3)c(C)o2)cc1	·	?	4%	·	14%	?	-12%	-4%
O=C(/C=C/c1ccc([N+](=O)[O-])cc1)c1cccs1	·	·	-1%	·	1%	·	2%	-7%
O=C(Nc1ccccc1Cl)NC1(C(=O)NCCCN2CCOCC2)CCCCC1	2.8%	-2%	-1%	-4%	-7%	-15%[46.1 µM]	-9%	-16%
CCOC(=O)C1CCCN(C(=S)NC2CCCC2)C1 (configuration not stated)	·	-1%[46.1 µM]	0%	·	1%	4%[46.1 µM]	-9%	0%
O=C(CSC1=NS(=O)(=O)c2cc(F)ccc2N1)Nc1ccccc1F	·	2%	5%	·	·	8%	33%[activator]	-2%
O=C(Cn1cc(/C=N/NC(=O)c2cccc(C(F)(F)F)c2)c2ccccc21)Nc1ccc(F)cc1	-15%	-26%	1%	-18%	5%	?	-27%	8%
CCOC(=O)Sc1nc2ncncc2[nH]1	·	16%[46.1 µM]	·	·	·	27%	-16%	3%
CC(=O)c1ccc(OCc2cc(C(=O)N(C)Cc3ccccn3)no2)cc1	·	?	0%	·	0%	10%	9%	2%
CC1=C(C(=O)Nc2ccc(C)cc2C)C(C(C)C)n2nc(SCc3ccccc3Cl)nc2N1 (configuration not stated)	-2.3%	5%[46.1 µM]	·	14%	·	-3%[46.1 µM]	-15%	·
Cc1cc(C=C2C(=O)N(C)C(=O)N(C)C2=O)c(C)n1-c1ccccc1	·	13%	2%	·	·	5%	0%	8%
CC[N+](CC)(CC#Cc1ccccc1)CC(=O)c1ccc(Cl)cc1	-5.1%	-12%	8%	-1%	2%	?	0%	5%
Cc1cc(F)ccc1NC(=O)c1c(C)oc2c1C1=NCCN1C=N2	7.1%	0%[46.1 µM]	·	-10%	·	·	-7%	·
Cc1ccc(OCC(=O)O/N=C(\N)c2ccccn2)cc1C	·	?	-1%	·	-4%	4%[14.2 µM]	36%[activator]	4%
CSc1ccccc1OCc1cc(C(=O)N2CCC[C@H]2C(N)=O)no1	·	·	16%	·	-26%	·	7%	0%
O=C(NCc1ccccn1)c1nnc(Cc2ccc(Cl)cc2)o1	0.0%	-3%	7%	-5%	-15%	?	-3%	-9%
CCOc1ccc(-n2c(SCC(=O)N3CCc4ccccc43)nc3c([nH]c4ccccc43)c2=O)cc1	0.3%	-16%[46.1 µM]	·	2%	·	·	-4%	·
Cc1cccc(OCC(=O)Nc2ccccc2C(=O)OCc2cc(=O)n3nc(C4CC4)sc3n2)c1	0.3%	?	·	4%	·	·	-22%	·
CCN(CC)c1ccc(/C=N/NC(=S)NCc2ccco2)cc1	-7.4%	2.1µM*	2%	-10%	-26%	?	?	-21%
Cc1c(C(=O)c2cccc(F)c2)c2ccccn2c1CCC#N	·	2%	-4%	·	·	20%[14.2 µM]	-6%	-21%
CC(C)[C@H]1COCCS(=O)(=O)N1Cc1cccc(Cl)c1	·	·	-8%	·	1%	·	-9%	-1%
Cc1cccc2cc(CN(CC3CCCO3)C(=S)NCc3ccco3)c(=O)[nH]c12 (configuration not stated)	-2.0%	-4%	5%	7%	5%	2%	-2%	-10%
COc1ccccc1NC(=O)N1CCCC1	·	?	0%	·	7%	3%[46.1 µM]	-6%	14%
CCO[C@H]1OC(C(=O)NC2CC2)=C[C@@H](C2CCCCC2)[C@@H]1CCCO	·	·	1%	·	-1%	·	-19%	7%
N#Cc1nc(-c2cccs2)oc1NCc1ccccc1	-15%	18%	-23%	13%	-45%	6%[46.1 µM]	10%	-12%
Cc1cccc(OCCNC(=S)NC(=O)c2cccnc2)c1	-7.4%	-2%	9%	0%	-8%	5%	-15%	4%
COC(=O)c1ccc(COc2cccnc2[N+](=O)[O-])cc1	·	-7%	1%	·	-19%	3%[46.1 µM]	14%	-14%
O=C(CNC(=O)c1ccc2ccccc2c1)OCC(=O)N1CCN(S(=O)(=O)c2ccc3ccccc3c2)CC1	-27%	6%	12%	?	?	-1%	-11%	7%
CN(Cc1ccco1)c1ncnc2ccc(-c3ccccc3Cl)cc12	-1.1%	·	-4%&2%	-1%	·	·	?	·
CCc1c(CN2CCN(c3ccccc3F)CC2)csc1C	0.3%	26%[46.1 µM]	·	11%	·	·	-28%	·
COC(=O)c1cc(OC)c(OC)cc1NC(=S)N1CCC(C(N)=O)CC1	2.6%	12%	6%	8%	-5%	1%	24%	-5%
Cc1ccc(OC(=O)CCNC(=O)c2ccccc2Cl)c(Br)c1	·	5%	7%	·	·	-6%[46.1 µM]	-16%	18%
O=C1C2C3C=CC(C3)C2C(=O)N1c1n[nH]c(-c2ccccc2)n1 (configuration not stated)	-0.7%	5%	10%	-5%	-3%	28%	1%	19%
COc1ccc(-n2c(=O)c(CCC(=O)N(C)Cc3ccccc3C)nc3ccccc32)cc1	·	·	0%	·	·	0%	-12%	11%
Cc1cc(=O)[nH]c(N)n1	·	·	0%	·	1%	·	-6%	-3%
Cc1ccc(NC(=O)NC2CCCCCCC2)cc1C	·	·	1%	·	5%	·	12%	30%
COc1ccc(CN(C)C(=O)CNC(=O)c2ccc(C)cc2)cc1	·	·	4%	·	7%	-18%[46.1 µM]	21%	-3%

Remaining list, next part.
SMILES	Cruzain inh Det	Lassa entry inh	SARS PLP yeast	Cruzain inh noDet	NS1 function inh	MARV entry inh	2A StopGo	RE007 growth inh
CS(=O)(=O)N1CCN(C2Cc3ccccc3C2)CC1	0.8%	9%	7%	-8%	1%	11%	·	-6%
COCc1nc2ccccc2n1Cc1c(F)cccc1Cl	·	13%	0%	·	3%	0%[46.1 µM]	-26%	32%
COc1ccc(C(=O)NCC(=O)OCc2ccc(Br)cc2)cc1	-7.4%	28%[46.1 µM]	6%	2%	-4%	12%[46.1 µM]	-28%	15%
CC(C)COC(=O)C(C#N)c1nc2ccccc2nc1N1CCN(Cc2ccc3c(c2)OCO3)CC1 (configuration not stated)	-0.6%	-3%	0%	-2%	4%	10%[46.1 µM]	-14%	5%
COC(=O)c1cc2oc3ccccc3c2n1CC(=O)Nc1cc(OC)cc(OC)c1	-5.4%	·	·	-10%	·	-1%[46.1 µM]	24%	·
Cc1cc(OC(=O)c2ccccc2)n(CCC#N)n1	0.8%	-6%	-9%	-7%	-8%	11%	7%	-22%
CCOC(=O)c1ccc(NC(=O)c2cccn(Cc3ccc(C)cc3)c2=O)cc1	0.9%	?	·	-18%	·	·	?	·
O=C1ON=C(c2ccccc2)/C1=C/c1ccc(OS(=O)(=O)c2ccccc2)cc1	-7.8%	12%	0%	4%	5%	9%	32µM*	2%
COC(=O)c1cccc(C(=O)N2CCCC(Nc3ccc4c(c3)OCCO4)C2)c1 (configuration not stated)	·	3%[46.1 µM]	1%	·	14%	?	-4%	0%
COc1ccc(CNS(=O)(=O)c2ccc(NC(=O)N3CCCCC3)cc2)cc1	·	·	2%	·	2%	·	?	6%
O=C(CN(Cc1ccc(F)cc1)C(=O)CNS(=O)(=O)c1ccccc1)NCC1CCCO1 (configuration not stated)	·	?	16%	·	7%	7%[46.1 µM]	19%	-10%
CCCn1c(=N)c(C(=O)NCc2cccnc2)cc2c(=O)n3cc(C)ccc3nc21	1.8%	?	·	23%	·	9%[46.1 µM]	-23%	·
CC(C)C1(C)N=C(c2ncccc2C(=O)O)NC1=O (configuration not stated)	-0.5%	18%	1%	1%	-1%	-1%&-1%&-1%&-1%&-1%	·	2%
COc1ccc(S(=O)(=O)n2nc(OC(=O)c3ccccc3Br)cc2N)cc1	-1.7%	11%	-2%	?	-4%	1%	-10%	19%

High-throughput results deposited in PubChem BioAssay by National Center for Advancing Translational Sciences (NCATS).
